ugtP null kill = growth inhibition of ugtP-null S. aureus, primary screen, RN4220 ugtP deletion, OD600 | 16 h; some inactives read as strong as hits | hit rate 0.54% among 330,000 | growth inhibition, % (concentration not given with the values);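 active = z-score under -3 and OD600 up to 0.15 on both plates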;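 also: plate controls were untreated wells for no effect and antibiotic for full effect; wells of about 80 µL received 100 nL stock; the first replicate is given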
Mtb hypoxia rep = PubChem AID 1159583 | M. tuberculosis hypoxia-regulated fluorescent reporter, fluorescence | fluorescence inhibition, % (test concentration not listed) | hit rate 0.1% among 300,000;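 active = 35 to 45% if threefold the growth effect, above 45% if 1.5-fold the growth effect; inactive = the rest, general growth blockers included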;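 also: wells of about 50 µL received 100 nL stock; 0% = vehicle wells and 100% = reference inhibitor wells; whole bacteria with a GFP reporter of the hypoxia response; strong numbers were not always called active; many hits fall short of the cut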
BJeLR viability = MLPCN primary cell-based screen for lethality selective to Ras in HRASV12 cells. BJeLR (HRASV12) viability, CellTiter-Glo ATP luminescence, 48 h; reference of the scale not given here. inhibition, % (concentration not given with the values). hit rate 0.17% among 300,000;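 active = replicate mean above 50%; inconclusive = above 50% but judged a plate artefact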;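 also: 50 nL library stock added to about 25 µL; numbers are from one replicate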
Autofluor counter = flagged as autofluorescent in microsphere protease counterscreen | compound autofluorescence counterscreen, microsphere flow cytometry; stronger effect = higher value | fluorescence intensity (concentration not given with the values) | AID 624483 | hit rate 3.1% among 360,000;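 active = at least 3 SD above the mean of all compounds, about 16000 in these data; inconclusive = too few beads counted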;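 also: 100 nL of 1 mM stock went into each well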
PrP UTR inh = inhibition of PrP 5' UTR reporter expression; inhibition, % (test concentration not listed); hit rate 0.35% among 340,000; cell-based PrP 5' UTR mRNA reporter, plate reader;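 active = every replicate at 50% or more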;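 also: 0 = median of the neutral control wells; tested in H4 reporter cells; numbers are from one replicate; inactives centre near -14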
RN4220 kill = growth inhibition of S. aureus RN4220, primary screen, OD600 | hit rate 0.33% among 330,000 | 16 h | inhibition, % (no concentration beside the values);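 active = z-score of -3 or lower and OD600 up to 0.18 on both plates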;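 also: plate controls were untreated cells for no effect and reference antibiotic for full effect; stock transfer was 100 nL into about 80 µL; one replicate is shown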
Mtb hypoxia rep growth = second read-out of Mtb hypoxia rep, no call of its own (marks repeat the call); growth inhibition, %; measured here: M. tuberculosis growth (absorbance);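 0% = vehicle and 100% = reference antibiotic; read after six days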
The depositor's hits bear a star; ? = inconclusive; nt = no result given.

SMILES	ugtP null kill	Mtb hypoxia rep	Mtb hypoxia rep growth	BJeLR viability	Autofluor counter	PrP UTR inh	RN4220 kill
O=C(c1cc(-c2cccnc2)nc2ccccc12)N1CCN(S(=O)(=O)c2ccc(Cl)s2)CC1	5.6	-4.4	-0.3	nt	4034	-1.6	4.8
O=C(Cn1nnc(-c2ccccc2)n1)NN=Cc1ccco1	-10.1	-7.8	-8.9	nt	nt	nt	0.2
CC(=O)Nc1ccc(N2CCOCC2)c([N+](=O)[O-])c1	10.2	1.4	-4.8	1.6	2694	-8.4	3.2
Nc1nc(COc2ccc(F)cc2)nc(N2CCCCC2)n1	2.1	-1.6	8.5	-4.1	4214	-21.0	1.1
O=C(NC1CCCC1)C(c1ccccn1)N(C(=O)c1csnn1)c1ccccc1Br (stereo not given)	1.3	-6.0	-2.5	-0.9	5001	-31.1	-3.4
Cc1cccc(C(C)n2nnc3ccccc32)c1O (stereo not given)	-2.1	-2.3	0.3	1.7	4260	-9.8	-1.3
CC(=O)Cc1nsc(NC(=O)c2ccccc2)n1	0.5	13.0	5.4	6.5	2295	-11.1	1.9
CCN1CCN(Cc2oc(CO)cc(=O)c2O)CC1	2.3	6.0	11.4	0.9	19271*	-24.6	0.8
CCOC(=O)Cc1csc(NS(=O)(=O)c2ccc([N+](=O)[O-])cc2)n1	8.5	5.3	-11.6	-4.6	3133	-11.1	6.7
CCOC(=O)c1ccccc1NC(=O)c1c(F)c(F)c(F)c(F)c1F	12.8	nt	nt	-0.2	6421	-4.3	-2.5
COc1ccc(C2NC(=S)N3C(c4ccc(OC)cc4)NC(=S)N23)cc1 (stereo not given)	-2.3	nt	nt	-1.9	2718	5.2	2.8
COc1ccc(NC(=O)NNC(=O)COc2ccc3cc(Br)ccc3c2)cc1	1.0	0.1	6.3	3.4	5577	-13.0	0.1
Cc1ccc(S(=O)(=O)NC(CC(C)C)C(=O)N2CCN(C/C=C/c3ccccc3)CC2)cc1 (stereo not given)	2.8	3.1	6.7	nt	?	-13.0	3.1
Cc1ccccc1C(=O)NCC(c1ccco1)N1CCc2ccccc2C1 (stereo not given)	1.7	2.7	1.0	-5.6	?	-11.5	3.9
Cc1cc(C)nc(NNC(=O)c2ccccc2O)n1	5.9	9.7	0.2	2.4	3310	-6.6	10.4
CC(=NNC(=O)c1ccc(Cl)cc1Cl)c1cccnc1	0.7	8.1	0.2	nt	nt	nt	2.3
O=S(=O)(c1cccc2nsnc12)N1CCN(c2ccc(F)cc2)CC1	-10.9	1.1	12.0	1.1	3332	-0.9	0.1
CC(=O)NC1(c2ccccc2)CCN(c2nc(C)cc(C)n2)CC1	-5.9	8.9	-6.8	nt	4122	-13.9	19.0
Cc1nc2ccccc2nc(C)c1=NOCc1ccccc1Cl	nt	nt	nt	3.8	2449	-24.9	nt
O=C1C=CC(=O)N1CCCCCCN1C(=O)C=CC1=O	11.3	-6.1	-12.0	nt	nt	nt	3.0
Cc1ccc(C=Nn2c(C)nnc2C)s1	6.6	2.0	3.2	nt	nt	nt	7.5
CCn1nnc2cc(C(=O)OCC(=O)N(C)Cc3cccc(F)c3)ccc21	4.0	9.3	4.4	nt	5174	-10.6	10.9
COCCN1Cc2cccc(C(=O)NCc3cccs3)c2C1=O	7.7	7.8	1.4	0.5	2401	-20.0	5.4
O=C(Nc1ccccc1C(=O)N1CCCCCC1)c1cccc(S(=O)(=O)N2CCOCC2)c1	1.3	-6.3	10.8	2.0	2518	-9.9	9.9
CCCCCOC(=O)c1[nH]c2c(c1C)C(=O)C(C(=O)OC)C(C)C2 (stereo not given)	1.3	nt	nt	1.5	5273	-44.6	2.5
Cc1cc(N/C=C(\C#N)S(=O)(=O)c2ccc(Cl)cc2)nc(C)n1	12.6	-8.9	-4.5	-10.7	4710	-25.8	5.4
CCN(CC)CCC(c1ccc2c(c1)OCO2)c1c(O)cc(OC)cc1OC (stereo not given)	-5.0	3.3	17.0	1.5	4268	5.3	-2.4
CCC1CN(C(=O)NCc2ccccc2)c2ccccc2O1 (stereo not given)	5.3	7.3	1.8	2.1	4030	-18.1	1.9
CN(C(=O)c1cccc(NC(=O)Cc2cccc(NC(=O)C3CCN(C(=O)C4CCCC4)CC3)c2)c1)C1CCC1	4.2	-1.1	1.5	nt	3919	-27.3	1.6
NS(=O)(=O)c1ccc(NC(=O)COC(=O)c2cccc(S(=O)(=O)N3CCCC3)c2)cc1	2.9	-3.1	4.3	-1.8	4348	-49.8	7.2
CCCSc1cc(=O)n(-c2ccc(F)cc2)nc1C(=O)OCC	7.5	-4.0	8.4	0.7	3937	-15.7	4.1
Cc1ccc(NC(=O)C2CCN(C(=O)c3ccc(F)cc3)CC2)nc1	0.5	0.8	5.9	0.6	5388	-26.8	3.2
COc1cccc(CC(NC(C)=O)C(=O)NC2CCN(c3ncccc3[N+](=O)[O-])CC2)c1 (stereo not given)	4.9	-2.0	8.5	-15.5	nt	nt	2.6
Cc1nnc(SCC(=O)c2c[nH]c3ccccc23)n1C1CC1	4.8	2.9	-6.4	nt	7575	-0.2	2.6
O=C(CC1Oc2ccc(Cl)cc2NC1=O)NC1CCCCCC1 (stereo not given)	-7.1	nt	nt	-6.5	5602	-26.1	-0.2
COC(=O)C1=CO[C@@H](OC2OC(CO)C(O)C(O)C2O)[C@@H]2C(CO)=CC[C@H]12 (stereo not given in full)	nt	nt	nt	-6.5	3934	-7.2	nt
Nc1ccccc1Sc1c[nH]c2ccccc12	-10.4	-14.1	2.4	-3.5	6222	-10.7	0.9
COc1ccccc1CCN1CCCC(CN(C)C(=O)CCC(=O)N(C)C)C1 (stereo not given)	3.8	-2.0	-4.0	-10.8	4401	-11.8	4.8
O=c1[nH]c2ccc(NCc3ccccc3OCc3ccc(Cl)cc3)cc2[nH]1	-11.8	1.6	9.5	1.0	3750	-10.2	3.8
Cc1nnc(NC(=O)CCn2cnc3ccccc3c2=O)s1	4.5	4.5	-0.3	-1.7	3262	-18.9	-0.6

Single records (already shown). Values in the order: ugtP null kill	Mtb hypoxia rep	Mtb hypoxia rep growth	BJeLR viability	Autofluor counter	PrP UTR inh	RN4220 kill
O=C(Nc1ccccc1C(=O)N1CCCCCC1)c1cccc(S(=O)(=O)N2CCOCC2)c1 is listed as 1.3	-6.3	10.8	2.0	2518	-9.9	9.9
Cc1ccc(NC(=O)C2CCN(C(=O)c3ccc(F)cc3)CC2)nc1 is listed as 0.5	0.8	5.9	0.6	5388	-26.8	3.2
COc1ccccc1CCN1CCCC(CN(C)C(=O)CCC(=O)N(C)C)C1 (stereo not given) is listed as 3.8	-2.0	-4.0	-10.8	4401	-11.8	4.8
CCCSc1cc(=O)n(-c2ccc(F)cc2)nc1C(=O)OCC is listed as 7.5	-4.0	8.4	0.7	3937	-15.7	4.1
Cc1cc(N/C=C(\C#N)S(=O)(=O)c2ccc(Cl)cc2)nc(C)n1 is listed as 12.6	-8.9	-4.5	-10.7	4710	-25.8	5.4

Further entries follow.
SMILES	ugtP null kill	Mtb hypoxia rep	Mtb hypoxia rep growth	BJeLR viability	Autofluor counter	PrP UTR inh	RN4220 kill
COc1cc(C=NNc2ccccn2)ccc1O	10.5	3.6	-5.5	nt	nt	nt	6.4
CC1CCCN(c2nc3ccccc3nc2C(C#N)S(=O)(=O)c2cccs2)C1 (stereo not given)	24.3	-6.6	0.9	6.8	10308	-11.5	43.9
Cn1cc(C(=O)c2ccc(Cl)cc2Cl)cc1C(=O)NN	5.1	7.5	8.0	-2.9	4073	-17.4	-0.4
CC1(C)N(OCc2ccccc2)C(=O)C(=O)N(OCc2ccccc2)C1(C)C	0.0	4.7	0.9	5.7	20720*	-13.8	-1.8
CS(=O)(=O)c1ccc(NC(=O)c2ccccc2-n2cnnn2)cc1	7.3	3.6	1.6	nt	2858	-11.6	5.2
O=C(NNC(=O)c1cccc2ccccc12)c1ccc(F)cc1	4.2	2.5	5.7	nt	4343	-13.2	28.1
COc1ccc(-c2cc(C)nc(SCC(=O)c3cccc([N+](=O)[O-])c3)n2)cc1	-17.5	-1.7	2.9	-12.9	7696	nt	7.0
CCOC(=O)CCc1c(C)nc2cc(-c3ccc(Cl)cc3)[nH]n2c1=O	-2.2	nt	nt	-0.6	4218	-0.5	-2.9
O=C(Cn1cnc([N+](=O)[O-])n1)NCCO	-0.5	nt	nt	-5.5	5512	-25.4	1.2
S=c1[nH]nc(-c2cc(-c3ccccc3)n[nH]2)n1N=Cc1cccs1	-5.8	3.2	5.0	nt	nt	nt	8.1
O=C(Nc1cccc2ccccc12)c1nn(C23CC4CC(CC(C4)C2)C3)cc1Br	13.5	nt	nt	-9.2	4552	-6.1	2.5
COc1ccc(CN2CCN(C(=O)CCC(=O)Nc3nnc(C(C)C)s3)CC2)cc1F	10.2	15.1	9.4	-3.5	4535	-4.3	1.7
COc1ccc(/C(C)=N/NC(=O)CNC(=O)/C=C/c2ccccc2OC)cc1	nt	nt	nt	-12.3	3610	-28.8	nt
Cc1ccc(S(=O)(=O)N2CCN(C)CC2)cc1-c1nnc2c3ccccc3c(C)nn12	3.2	9.5	14.4	1.2	4113	-17.8	2.5
COc1ccc(NC(=O)c2cccnc2Cl)c(S(=O)(=O)N2CCOCC2)c1	-0.2	3.4	6.2	7.9	22564*	-36.6	4.6
CN(C)S(=O)(=O)c1cccc(NC(=O)COC(=O)C2CCN(C(=O)c3ccc(F)cc3)CC2)c1	9.5	12.8	10.4	nt	?	-1.5	7.1
C=CCNC(=O)c1ccc(OC2CCN(S(=O)(=O)N(C)C)CC2)cc1	-1.9	-0.4	9.8	2.2	4466	-22.6	2.0
COc1ccc(Nc2nc(OC)nc(N3CCOCC3)n2)cc1	4.5	11.9	2.9	8.6	3177	-2.9	4.1
COc1ccc(-c2nnc3ccc(SCC(=O)N4CCN(c5ccccc5)CC4)nn23)cc1	2.8	4.4	-3.1	nt	4383	-12.7	4.1
Cc1ccc2nc(-c3ccccn3)cc(C(=O)NCCc3ccc(F)cc3)c2c1	-5.7	-2.0	2.9	-6.2	6360	-5.2	3.6

Part of the list above, set out differently:
Cn1cc(C(=O)c2ccc(Cl)cc2Cl)cc1C(=O)NN
  ugtP null kill: 5.1 | Mtb hypoxia rep: 7.5 | Mtb hypoxia rep growth: 8.0 | BJeLR viability: -2.9 | Autofluor counter: 4073 | PrP UTR inh: -17.4 | RN4220 kill: -0.4

CC1(C)N(OCc2ccccc2)C(=O)C(=O)N(OCc2ccccc2)C1(C)C
  ugtP null kill: 0.0 | Mtb hypoxia rep: 4.7 | Mtb hypoxia rep growth: 0.9 | BJeLR viability: 5.7 | Autofluor counter: 20720* | PrP UTR inh: -13.8 | RN4220 kill: -1.8

Going on with the list.
SMILES	ugtP null kill	Mtb hypoxia rep	Mtb hypoxia rep growth	BJeLR viability	Autofluor counter	PrP UTR inh	RN4220 kill
Cc1cc(C(=O)NNC(=S)NCc2ccccc2)no1	12.0	12.3	0.5	-6.3	6081	-31.1	1.2
COc1ccc(C)cc1-n1nnnc1SCC(=O)NC1CCCC1	0.2	-5.0	-7.9	nt	nt	-15.2	-1.1
COC(CNC(=O)c1ccc(N2CCCC2=O)cc1)OC	17.5	3.5	0.9	-3.0	4219	-1.9	5.6
COc1ccccc1CNC(=O)COC(=O)/C=C/c1ccc2ccccc2n1	1.6	10.3	7.6	nt	3405	-11.5	8.3
CC1CCC(NC(=O)C2CCN(c3nc4ccccc4s3)CC2)CC1 (stereo not given)	6.9	1.2	1.0	8.5	3657	-11.7	-0.2
CC1=CC(C/C(C)=C/COc2ccc3ccc(=O)oc3c2)OC1=O (stereo not given)	-6.7	nt	nt	-0.9	5518	-14.1	4.0
COC(=O)CSc1nnc(CNc2ccc(Cl)cc2)n1Cc1ccccc1	2.3	9.1	1.0	-1.7	9319	-17.4	0.4
Cc1ccc(C(=O)Nc2cnc3ccccn3c2=O)cc1	3.0	2.3	3.7	8.3	24404*	-52.1	3.3
CCOC(=O)c1sc(/N=C/c2c(O)ccc3ccccc23)cc1C	nt	nt	nt	-5.0	2558	-28.8	nt

A few values from above:
Autofluor counter with `CCOC(=O)c1sc(/N=C/c2c(O)ccc3ccccc23)cc1C` is entered as 2558
RN4220 kill with `COc1ccccc1CNC(=O)COC(=O)/C=C/c1ccc2ccccc2n1` is entered as 8.3
Autofluor counter with `Cc1cc(C(=O)NNC(=S)NCc2ccccc2)no1` is entered as 6081
